UUG fidelity – modulators of yeast start codon fidelity, primary screen, whole organism, S. cerevisiae, single point, plate reader; activity score, % at 18.7 µM; 0.13% of 350,000 active; S. cerevisiae UUG-firefly luciferase reporter, luminescence/redox ratio; AID 602363, 2012;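 active = replicate mean at a twofold rise or more, about +100% in these data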;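 also: firefly luciferase made from a UUG start codon reports start codon fidelity; reporter light over untreated wells divided by growth signal over untreated wells; some hits fall short of that in this replicate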
CSC inhib – cancer stem cell viability inhibitors, primary screen, luminescence; 1.1% of 300,000 active; cancer stem cell-like cells viability; inhibition, % at 7.5 µM; AID 2717, 2010;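 active = mean at 75% or more and at least half the replicates too; tested in HMLE shEcad cells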;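 also: 0% = median of negative and 100% = median of positive control wells; the first replicate is given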
Rce1 inh – yeast Rce1p protease inhibitors, primary screen, biochemical, fluorescence, cell-free homogeneous | calls only | yeast membranes, quenched prenylated peptide cleavage fluorescence | AID 2563, 2010 | 0.27% of 290,000 active;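 active = fall in fluorescence gain of 50% or more versus controls, with final raw signal at or below 3038400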;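 also: plate controls were neutral control wells for no effect and wells lacking membranes for full effect; tested at 10 µM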
Target sequence (Q03530 whole entry, looked up): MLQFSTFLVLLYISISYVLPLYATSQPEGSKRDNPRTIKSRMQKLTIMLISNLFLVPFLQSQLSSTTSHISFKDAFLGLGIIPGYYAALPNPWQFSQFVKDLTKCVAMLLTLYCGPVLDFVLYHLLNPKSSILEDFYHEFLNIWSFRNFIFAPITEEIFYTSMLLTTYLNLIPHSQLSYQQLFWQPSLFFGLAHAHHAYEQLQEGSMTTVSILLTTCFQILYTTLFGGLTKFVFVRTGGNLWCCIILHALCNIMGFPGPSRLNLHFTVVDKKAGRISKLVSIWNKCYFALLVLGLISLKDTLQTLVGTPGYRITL
eIF4H inh – human eIF4H binding inhibitors, primary screen, translation initiation inhibitor project, biochemical, uHTS, fluorescence polarization | eIF4H fluorescence polarization binding assay | Eukaryotic translation initiation factor 4H (Homo sapiens), Q15056 | 0.94% of 290,000 active | AID 2012, 2009 | inhibition, % at 35 µM;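 active = 50% or more with normal probe brightness, or confirmed in later tests; about a fifth of its hits are not listed in these tables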;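 also: calls also rest on retests at 20 µM and on dose response follow-up; 0% = protein and probe with vehicle and 100% = probe without protein; strong numbers were not always called active; many hits fall short of the cut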
MT1-MMP act inh – blockers of MT1-MMP proenzyme processing, primary screen, HT1080 RFP-PRO-GFP cells, GFP/RFP fluorescence; Matrix metalloproteinase-14 (Homo sapiens), P50281; GFP/RFP ratio fluorescence, overnight; percent of plate control window, DMSO zero; GFP/RFP ratio change, % at 20 µM; 0.061% of 360,000 active; AID 651647, 2012;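 active = GFP/RFP ratio change of at least 30% with cell ATP level not reduced by more than half and red fluorescence within 50% of control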; also: strong numbers were not always called active
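Assay system: RFP-PRO-GFP reporter HT1080 cells; read-out basis: GFP/RFP fluorescence ratio; benchmarks: DMSO wells and RFP-L50D-GFP cells; doses: 20 µM single dose, 1% DMSO; schedule: overnight cell settling, then overnight compound exposure, 37 °C, 5% CO2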
PABP polyA inh – PABP poly(A) RNA binding inhibitors, primary screen, biochemical, fluorescence polarization, uHTS. inhibition, % at 35 µM. 1% of 290,000 active. AID 2014, 2009;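 active = 50% or more with normal probe brightness, or confirmed in later tests; about a fifth of its hits are not listed in these tables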;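 also: calls also rest on retests at 20 µM and on dose response follow-up; controls were probe without protein and protein plus probe with vehicle; some compounds called inactive have numbers as strong as hits; many hits fall short of the cut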
Target sequence (P11940 whole entry, looked up): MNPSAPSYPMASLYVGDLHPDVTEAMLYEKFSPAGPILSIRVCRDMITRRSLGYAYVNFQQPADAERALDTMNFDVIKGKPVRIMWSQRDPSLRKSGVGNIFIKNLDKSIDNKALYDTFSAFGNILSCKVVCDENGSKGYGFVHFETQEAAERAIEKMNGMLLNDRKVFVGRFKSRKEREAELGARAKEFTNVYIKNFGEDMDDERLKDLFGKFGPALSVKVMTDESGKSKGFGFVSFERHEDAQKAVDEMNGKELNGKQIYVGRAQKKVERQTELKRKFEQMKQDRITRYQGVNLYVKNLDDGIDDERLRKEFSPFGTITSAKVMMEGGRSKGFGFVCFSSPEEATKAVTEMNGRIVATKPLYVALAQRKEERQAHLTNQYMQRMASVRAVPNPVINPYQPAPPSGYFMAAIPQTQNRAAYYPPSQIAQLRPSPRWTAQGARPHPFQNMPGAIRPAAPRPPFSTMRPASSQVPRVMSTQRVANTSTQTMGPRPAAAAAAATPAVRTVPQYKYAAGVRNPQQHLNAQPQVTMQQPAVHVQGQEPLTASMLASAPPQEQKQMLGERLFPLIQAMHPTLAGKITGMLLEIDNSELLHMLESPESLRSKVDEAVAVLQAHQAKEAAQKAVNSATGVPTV
Env fusion inh – inhibitors of HIV-1 Env-driven cell-cell fusion, primary screen, HeLa-JRFL effector, CEM21 target cells, luciferase; inhibition, % at 12.3 µM; 1.1% of 360,000 active;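 active = mean replicate inhibition score of at least 50 and every replicate individually at or above 50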;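 also: 0% = plate neutral controls and 100% = maraviroc near 300 nM; one replicate is shown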
eIF4H inh retest – second read-out of eIF4H inh, no call of its own (marks repeat the call); inhibition, %; compound at 20 µM; confirmation average;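 mean of two retest wells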
PABP polyA inh retest – second read-out of PABP polyA inh, no call of its own (marks repeat the call); inhibition, %; compound at 20 µM; confirmation repeats;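 mean of two retest wells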
MT1-MMP act inh RFP – second read-out of MT1-MMP act inh, no call of its own (marks repeat the call); RFP signal change, %; measured here: RFP expression control read;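 0 = vehicle wells; hits needed this value within 50% of zero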
* hit, by the source's call; i = inactive; · = not tested or not shown.

Start of the listing, in advance (2 entries):
SMILES	UUG fidelity	CSC inhib	Rce1 inh	eIF4H inh	MT1-MMP act inh	MT1-MMP act inh RFP	PABP polyA inh	Env fusion inh	others
Cc1ccc(S(=O)(=O)NCC(=O)N(CC(=O)NCc2ccco2)Cc2ccco2)cc1	-10	-14	i	8	0	2	10	11
Cc1cc(NCCN2CCOCC2)n2c(nc3ccccc32)c1C#N	-7	·	i	-4	3	-4	-6	-375

This part in full, previewed entries included:
SMILES	UUG fidelity	CSC inhib	Rce1 inh	eIF4H inh	MT1-MMP act inh	MT1-MMP act inh RFP	PABP polyA inh	Env fusion inh	others
Cc1ccc(S(=O)(=O)NCC(=O)N(CC(=O)NCc2ccco2)Cc2ccco2)cc1	-10	-14	i	8	0	2	10	11
Cc1cc(NCCN2CCOCC2)n2c(nc3ccccc32)c1C#N	-7	·	i	-4	3	-4	-6	-375
CCN(CC)CCn1c2c(c(SCC(=O)NCc3ccccc3)nc1=O)CCC2	-1	-7	i	·	-4	3	·	2
CCC1CCc2sc(C(=O)NNC(=S)NCC3CCCO3)cc2C1 (stereo unspecified)	-15	0	·	·	2	-3	·	-3
Cc1ccc(F)cc1NC(=O)N1CCN(c2ccnc3cc(Cl)ccc23)CC1	-31	0	i	4	-1	-10	1	22
Cc1cccc(OCCn2ccnc2)c1C	-12	-13	i	-2	6	2	8	-52
CCOC(=O)CNC(=O)CSc1nc(Cc2ccccc2)nc2ccccc12	5	4	i	-4	-2	-3	6	4
CC1CN(C(=O)c2ccccc2)C(=Nc2cccc(S(=O)(=O)N(C)C)c2)S1 (stereo unspecified)	17	·	i	6	2	1	8	28
C=C(C)[C@@H]1CC[C@]2(C(=O)O)CC[C@]3(C)[C@H](CC[C@@H]4[C@@]5(C)CC[C@H](O)C(C)(C)[C@@H]5CC[C@]43C)[C@@H]12	-10	84*	i	-14	-5	-20	-3	16
O=C(NCCc1cccs1)C1CC(c2cccc(F)c2)=NO1 (stereo unspecified)	-21	14	i	5	-3	2	13	9
CC(C)N(CC(=O)Nc1ccc(Cl)cc1C(F)(F)F)C(=O)CCl	·	-6	i	5	·	·	18	35
CCN(CC(=O)Nc1ccc(NC(C)=O)cc1)C(=O)c1oc2ccccc2c1C	-9	2	i	·	4	5	·	-11
CCOc1ccc(NS(=O)(=O)c2cc(OCC(N)=O)c(C)cc2Cl)cc1	-9	-2	i	0	3	3	-6	13
O=C(O)C1CCN(S(=O)(=O)c2ccc(Oc3ccccc3)cc2)CC1	-6	-7	i	5	-4	-1	2	5
O=C1CC(C(=O)N(c2cccc(F)c2)C(C(=O)NC2CCCC2)c2ccccn2)CS1 (stereo unspecified)	-5	-1	i	-12	-3	2	-3	33
CCc1nnc(NC(=O)c2c(O)c3c([nH]c2=O)CCCC3)s1	-7	-5	i	-3	-1	-1	8	-40
CCO[C@@H]1OC(C(=O)N2CCCCCCC2)=C[C@H](c2csc3ccccc23)[C@H]1CCCO	-8	-2	i	9	-6	-8	1	15
CCS(=O)(=O)N1CCCC(C(=O)NCc2cccnc2)C1 (stereo unspecified)	-14	23	i	4	4	9	-1	·
CCOc1cc(C(=O)N(C)Cc2cc3cc(OC)ccc3[nH]c2=O)cc(OCC)c1OCC	-5	-5	i	-8	6	4	50	·
O=C(/C=C/c1ccc([N+](=O)[O-])cc1)NCCc1ccc(F)cc1	·	9	i	-3	2	0	2	-23
COc1ccc(C2=CC3=C(Br)C(=O)C(C)(OC(=O)c4cccs4)C(=O)C3=CO2)cc1 (stereo unspecified)	-17	0	i	·	-5	6	·	-3
CC(=O)n1cc(/C=N/NC(=O)c2ccccc2O)c2ccccc21	-8	0	i	-7	0	1	-1	-6
O=C(CSc1nnc(CNC(=O)c2ccc(F)cc2)o1)NCCc1ccccc1	-13	-12	i	-9	1	1	-1	·
Cc1cc(Nc2cccc(F)c2)n2ncnc2n1	-16	-19	i	5	-1	5	0	-4
Cc1ccc(CCNS(=O)(=O)c2cc3c(cc2C)n(C)c(=O)c(=O)n3C)cc1	-13	·	i	-2	0	-7	0	-2
COc1cc2c(cc1OC)C(=O)C(c1ccc3c(c1)OCO3)CC2 (stereo unspecified)	-28	·	·	·	-3	-3	·	-21
C=CCn1c(CSCc2ccc(Cl)cc2)nnc1SCC(=O)NCc1ccccc1	-13	-17	i	-1	2	1	0	·
Cc1ccc2sc(-c3ccc(NC(=O)c4cc(-n5cnnc5)ccc4Cl)cc3)nc2c1	1	4	i	-5	3	-15	10	-139
CC(NC(=O)CCn1ccc2cc(S(=O)(=O)N3CCCC3)ccc21)c1ccccc1 (stereo unspecified)	-7	4	i	-4	0	-3	3	57*
COc1ccc(CC(=O)OC(C)C(=O)NC2CCCCC2C)cc1 (stereo unspecified)	-13	·	·	·	12	2	·	9
COc1ccc(C(CNC(=O)c2ccco2)N2CCCC2)cc1 (stereo unspecified)	10	-12	·	·	1	3	·	·
COc1ccccc1NC(=O)Nc1sccc1-c1nc2ccccc2s1	22	19	i	39	-5	7	24	11
COc1ccc(/C=C2\CCCC3C2=NN(C(=O)c2scnc2C)C3c2ccc(OC)c(OC)c2)cc1OC (stereo unspecified)	-6	-20	i	4	-5	-6	10	66*
Cc1cc(C(F)(F)F)nn1Cc1ccc(C(=O)NCc2ccco2)o1	4	-7	i	-2	-4	2	15	·
COc1ccccc1C1(CC(=O)O)CCOC(C(C)C)C1 (stereo unspecified)	6	-2	i	-7	7	7	1	·
O=C(CSc1nnc(NC2CC2)s1)Nc1ccc(N2CCOCC2)cc1	-12	-5	·	·	-3	4	·	4
CC1CCN(CCCNC(=O)c2ccc(CS(=O)(=O)Cc3ccccc3F)o2)CC1	·	·	i	4	1	0	5	·
Cc1ccc([N+](=O)[O-])cc1N=Cc1ccc(Br)s1	4	-15	·	-10	-4	3	25	·
COC(=O)c1ccc(NS(=O)(=O)c2ccc(SC)cc2)cc1	7	-2	i	0	-3	-5	-4	·
COCCOCC(O)CN1CCN(c2ccc(C)cc2)CC1 (stereo unspecified)	-10	0	i	7	3	4	14	10
COc1ccc(S(=O)(=O)N(C)CC(=O)N2CCCC2)cc1Cl	-8	3	i	-3	1	0	-8	-6
CCOc1cccc(C2C(C#N)=C(N)Oc3cc(C)[nH]c(=O)c32)c1OCC (stereo unspecified)	·	-5	i	-2	5	-1	-2	-60
COc1ccc(C)cc1S(=O)(=O)N(C)CC(=O)N1CCC(C)CC1	-8	-12	i	1	-3	-3	90	·	eIF4H inh retest=3;PABP polyA inh retest=9
COc1cccc(NC(=O)Nc2ccc3c(c2)nc(C)n3C)c1	·	24	i	8	-1	-5	-9	-127
CN(Cc1ccc2c(c1)CCCN2C)C(=O)[C@H]1O[C@@H](n2ccc(=O)[nH]c2=O)[C@H](O)[C@@H]1O	-10	·	·	·	-4	2	·	-22
CCCCCn1c(CN2CCN(C)CC2)nc2c1c(=O)n(C)c(=O)n2C	7	5	i	4	-8	2	16	·
COc1cccc(CN(C)C(=O)c2ccc(Oc3ccccc3)cc2)c1OC	7	-13	i	-5	0	-5	-8	2
O=C(O)c1ccc(N2C(=O)CC(N3CCN(c4ccc(Cl)cc4)CC3)C2=O)cc1 (stereo unspecified)	-2	-15	i	-9	-3	1	7	-10
CCCCc1cc(=O)oc2cc(C)cc(OC(C)C(=O)NCc3ccncc3)c12 (stereo unspecified)	·	-10	i	-6	-7	-8	-10	10
COC(=O)[C@H](Cc1ccccc1)NC(=O)Cn1cnc2c(NCc3ccccc3)ncnc21	-20	·	·	·	3	3	·	1
COc1cc([N+](=O)[O-])ccc1NC(=O)CCCOc1cc(C)ccc1C	·	-1	i	-5	4	8	2	-2
CNC(=O)COc1ccc(-c2nn(C)c(=O)c3ccccc23)cc1	-19	-8	i	0	0	2	-8	-15

Sorted by molar mass (lowest first): part of the list above.
SMILES	UUG fidelity	CSC inhib	Rce1 inh	eIF4H inh	MT1-MMP act inh	MT1-MMP act inh RFP	PABP polyA inh	Env fusion inh	others
COc1cccc(NC(=O)Nc2ccc3c(c2)nc(C)n3C)c1	·	24	i	8	-1	-5	-9	-127
CNC(=O)COc1ccc(-c2nn(C)c(=O)c3ccccc23)cc1	-19	-8	i	0	0	2	-8	-15
Cc1ccc([N+](=O)[O-])cc1N=Cc1ccc(Br)s1	4	-15	·	-10	-4	3	25	·
COC(=O)c1ccc(NS(=O)(=O)c2ccc(SC)cc2)cc1	7	-2	i	0	-3	-5	-4	·
COc1ccc(S(=O)(=O)N(C)CC(=O)N2CCCC2)cc1Cl	-8	3	i	-3	1	0	-8	-6
COc1ccc(C)cc1S(=O)(=O)N(C)CC(=O)N1CCC(C)CC1	-8	-12	i	1	-3	-3	90	·	eIF4H inh retest=3;PABP polyA inh retest=9
COc1cc([N+](=O)[O-])ccc1NC(=O)CCCOc1cc(C)ccc1C	·	-1	i	-5	4	8	2	-2
CCOc1cccc(C2C(C#N)=C(N)Oc3cc(C)[nH]c(=O)c32)c1OCC (stereo unspecified)	·	-5	i	-2	5	-1	-2	-60
COc1cccc(CN(C)C(=O)c2ccc(Oc3ccccc3)cc2)c1OC	7	-13	i	-5	0	-5	-8	2
CCCCc1cc(=O)oc2cc(C)cc(OC(C)C(=O)NCc3ccncc3)c12 (stereo unspecified)	·	-10	i	-6	-7	-8	-10	10
CN(Cc1ccc2c(c1)CCCN2C)C(=O)[C@H]1O[C@@H](n2ccc(=O)[nH]c2=O)[C@H](O)[C@@H]1O	-10	·	·	·	-4	2	·	-22
CC1CCN(CCCNC(=O)c2ccc(CS(=O)(=O)Cc3ccccc3F)o2)CC1	·	·	i	4	1	0	5	·
COC(=O)[C@H](Cc1ccccc1)NC(=O)Cn1cnc2c(NCc3ccccc3)ncnc21	-20	·	·	·	3	3	·	1
